AmpC inh no det = blocks E. coli AmpC beta-lactamase in absence of detergent; AmpC nitrocefin hydrolysis, absorbance 480 nm, no detergent; potencies from a single point are estimates; AID 585; P00811; actives 1.8% (n = 71,000); Potency, µM (top dose mostly 28.7 µM), for the others: at the highest dose activity change, negative = inhibition; active = falling curve, for most hits resting on a single point; inconclusive = weak or doubtful change; inactive = flat or rising curve; note: % of control where 0% means no effect; about half of the hits show no inhibition at the top dose; a quarter of the inactives give rising signals
Target sequence (P00811 whole entry, looked up): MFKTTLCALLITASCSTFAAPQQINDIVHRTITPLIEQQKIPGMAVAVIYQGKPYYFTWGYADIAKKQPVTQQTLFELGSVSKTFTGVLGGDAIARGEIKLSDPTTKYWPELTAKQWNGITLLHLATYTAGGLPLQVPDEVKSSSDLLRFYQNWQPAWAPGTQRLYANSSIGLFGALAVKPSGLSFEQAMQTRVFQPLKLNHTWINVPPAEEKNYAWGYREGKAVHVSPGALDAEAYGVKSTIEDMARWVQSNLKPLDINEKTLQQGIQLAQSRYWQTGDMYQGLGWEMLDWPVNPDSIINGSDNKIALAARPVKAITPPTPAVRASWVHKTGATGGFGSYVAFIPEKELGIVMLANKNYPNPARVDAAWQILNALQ
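AmpC, 20 mM phosphate pH 7.0; 15 min cpd preinc, RT; start with nitrocefin (800 uM stock); A480 kinetic read, 20 s intervals, 4 min. No-enzyme wells = negative control.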
An asterisk follows results filed as active; ? = inconclusive; [ ] = another dose, or the depositor's remark. Potency is the fitted concentration of half-maximal effect.

nr	structure	AmpC inh no det
1	COc1ccccc1OCCNC(=O)c1cccs1	-5%
2	CCOC(=O)N1CCN(S(=O)(=O)c2ccc(C(=O)Nc3nc4c(s3)CC(C)CC4)cc2)CC1 (stereo unspecified)	63%
3	O=C(Nc1cnc2ccccc2c1)c1ccncc1	19%
4	O=C(c1ccco1)N1CCN(C(=O)C2CCN(S(=O)(=O)c3cccc4nsnc34)CC2)CC1	39%
5	COc1ccc(CCNC(=O)CSc2nnc(-c3ccccc3)o2)cc1OC	14%
6	CC1CCN(c2ccc(NC(=O)c3cccnc3)cc2)CC1	27%
7	CC1CCN(C(c2cc3cc4c(cc3[nH]c2=O)OCO4)c2nnnn2CC2CCCO2)CC1 (stereo unspecified)	25%
8	COc1cc(C2C(C(=O)c3ccc(C)o3)=C(O)C(=O)N2c2cc(C)on2)cc(Br)c1O (stereo unspecified)	-18%
9	Cc1scc(C(=O)Nn2cnnc2)c1-c1ccccc1	-8%
10	Cc1ccc(C(=O)C(C)OC(=O)C2=COCCO2)cc1C (stereo unspecified)	13%

Other compounds:
nr	structure	AmpC inh no det
11	O=C(CCn1c(=O)[nH]c2ccsc2c1=O)N1CCN(Cc2ccc3c(c2)OCO3)CC1	34%
12	O=C(CCCSc1nc2ccccc2s1)NCc1ccco1	4%
13	Cn1cc(C(=O)c2ccccc2)c2ccccc21	4µM*[single pt active]
14	O=C(Nc1ccc2[nH]c3c(c2c1)CCCC3)c1ccco1	1%
15	COc1ccc(C(C(=O)NC(C)(C)C)N(Cc2ccco2)C(=O)CCC(=O)Nc2cc(C)on2)cc1 (stereo unspecified)	50%
16	Cn1nc(C(=O)NC2CCCCC2)c2ccccc2c1=O	5%
17	Cc1sc2ncnc(SCC(=O)N3CCCC3)c2c1C	16%
18	CCOc1ccc(N2C(=O)CC(/C=C3/N(C)c4ccccc4C3(C)C)C2=O)cc1 (stereo unspecified)	24%
19	CCOc1ccccc1-n1c(SCC(=O)N(CC)CC)nnc1-c1ccccn1	64%
20	Cc1ccc(SCc2cc(=O)[nH]c(N3CCN(Cc4ccccc4)CC3)n2)cc1	3%

Continued:
nr	structure	AmpC inh no det
21	Cc1ccc(Oc2ccc(NC(=O)c3ccco3)cc2)cc1	9%
22	CCc1ccc(C2CC(c3ccccc3Cl)Nc3nc(N)nn32)cc1 (stereo unspecified)	94%
23	CN1C(=O)C[C@H](c2ccccc2)C1=O	1%[12.8 µM]
24	Cc1cc(=O)n2nc(N3CCCC(C(=O)NCCCN4CCc5ccccc5C4)C3)sc2n1 (stereo unspecified)	5%
25	CCc1cc(=O)oc2cc(C)cc(OCc3nn[nH]n3)c12	-14%
26	COC(=O)c1cc(OC)c(OC)cc1NC(=O)CSc1nnnn1Cc1ccccc1	143%
27	COc1ccccc1NC(=O)N1c2ccc(F)cc2CCC1C (stereo unspecified)	3%
28	O=C(Nc1ccc(Oc2ncccn2)cc1)c1ccco1	-6%
29	CCCCOC(=O)c1ccc(NC(=O)c2ccoc2C)cc1	-9%
30	O=C1C(Cl)=C(N2CCCCC2)C(=O)N1c1ccccc1Cl	6%

Going on with the list.
nr	structure	AmpC inh no det
31	Cc1ccc2cc(CN(C)C(=O)C3CCCO3)c(=O)[nH]c2c1 (stereo unspecified)	-9%
32	O=C(Nc1ccc2nc(-c3ccccc3)oc2c1)c1ccco1	73%
33	CCc1ccc2[nH]c(=O)c(CN(CCCN3CCOCC3)C(=O)Nc3cccc(Cl)c3)cc2c1	126%
34	O=C(c1ccc(CNS(=O)(=O)c2ccccc2)cc1)N1CCN(c2ccccn2)CC1	52%
35	Cc1ccc(S(=O)(=O)N2CCN(C3CCN(Cc4ccccc4)CC3)CC2)cc1	28%
36	Cc1ccc(Cl)cc1N1CCN(C(=O)c2ccc(NS(=O)(=O)c3c(C)noc3C)cc2)CC1	6%
37	Cc1ccc(-c2nc(NCCN3CCOCC3)c3ccccc3n2)cc1	112%
38	CCOC(=O)N1CCN(C(=O)CSc2nc3c([nH]c4ccccc43)c(=O)n2C)CC1	8%
39	CCOC(=O)N1CCN(C(=O)CCSc2ccccc2)CC1	28%
40	Cc1nn(C(=O)N2CCCCC2)c(C)c1CN1C(=O)c2ccccc2C1=O	73%

(cont.)
nr	structure	AmpC inh no det
41	CC(=O)CC(=O)Nc1ccccc1	12%
42	O=C(Cn1nc(-c2ccc(Cl)cc2)ccc1=O)N1CCN(c2ccccc2)CC1	160%
43	CSc1ccc(C2NC(=O)c3c(sc4c3CCN(C)C4)N2)cc1 (stereo unspecified)	31%
44	Cc1cc(=O)[nH]c(SCCOc2ccc3c(c2)CCC3)n1	-15%
45	CCOC(=O)C(C)n1cnc2c(nnn2Cc2ccc(C)cc2)c1=O (stereo unspecified)	6%
46	Cc1ccc(-c2nnc(-c3ccc4ccccc4c3)o2)cc1	1%[5.75 µM]
47	Cc1nn(C)c(C)c1S(=O)(=O)NC1CCCC1	-6%
48	O=C(O)c1ccc(NS(=O)(=O)c2cc(Cl)ccc2Cl)cc1	-10%
49	CCCn1nnc(NC(=O)C(C)Oc2ccc(Cl)cc2Cl)n1 (stereo unspecified)	20%
50	Cc1sc2ncn(CC(=O)OCC(=O)NC(C)(C)C)c(=O)c2c1C	29%

Retrieved by structure from the list above, 3 records:
nr	structure	AmpC inh no det
50	Cc1sc2ncn(CC(=O)OCC(=O)NC(C)(C)C)c(=O)c2c1C	29%
41	CC(=O)CC(=O)Nc1ccccc1	12%
47	Cc1nn(C)c(C)c1S(=O)(=O)NC1CCCC1	-6%

Other records:
nr	structure	AmpC inh no det
51	COCCOC(=O)C1=C(N)OC(C)=C(C(=O)OC)C12C(=O)Nc1ccccc12 (stereo unspecified)	24%
52	CCOC(=O)CN1C(=O)C(CC)Oc2ccccc21 (stereo unspecified)	11%
53	Cc1cc(NC(=O)c2cnn3cccnc23)nn1CC(=O)Nc1cccnc1	-7%
54	N#CCSCC(=O)Nc1ccc(F)cc1	0%
55	CC(Oc1ccc(Cl)cc1Cl)C(=O)NCCN1CCOCC1 (stereo unspecified)	49%
56	CC(C)Oc1ccc(C(CC(=O)O)NC(=O)C2CCCCC2)cc1 (stereo unspecified)	0%
57	Cn1c(SCC(=O)Nc2sc3c(c2C#N)CCC3)nnc1C1COc2ccccc2O1 (stereo unspecified)	5%
58	Cc1ccc2[nH]c(=O)c(CN(CCCO)S(=O)(=O)c3c(C)ccc4nsnc34)cc2c1	96%
59	CC(=O)N1CCc2ccc(C(=O)CN3CCN(c4cccc(C)c4C)CC3)cc21	86%
60	O=C(c1ccco1)N1CCN(CC(=O)N2CCCc3c2c(=O)oc2ccc(O)cc32)CC1	2%

Shown field by field: part of the list above.
#57 Cn1c(SCC(=O)Nc2sc3c(c2C#N)CCC3)nnc1C1COc2ccccc2O1 (stereo unspecified)
  AmpC inh no det = 5%
#53 Cc1cc(NC(=O)c2cnn3cccnc23)nn1CC(=O)Nc1cccnc1
  AmpC inh no det = -7%
#58 Cc1ccc2[nH]c(=O)c(CN(CCCO)S(=O)(=O)c3c(C)ccc4nsnc34)cc2c1
  AmpC inh no det = 96%
#52 CCOC(=O)CN1C(=O)C(CC)Oc2ccccc21 (stereo unspecified)
  AmpC inh no det = 11%

The results go on.
nr	structure	AmpC inh no det
61	COc1ccccc1-c1ccc(=O)n(CC(=O)NCc2ccc3c(c2)OCO3)n1	27%
62	Cc1nn(-c2ccccc2)c2[nH]c(=O)c(CNc3ccc4c(c3)OCCO4)cc12	70%
63	Nc1[nH]nc2nc(N3CCCC3)nc(-c3ccccc3)c12	12%
64	COc1ccc(C(=O)N2CCC3(CCCN(Cc4ccc(C#N)cc4)C3)CC2)cc1	76%
65	Cc1nn(-c2nc3ccccc3s2)c(N)c1Sc1ccc(F)cc1	-18%
66	O=C(O)CCc1ccc(-c2ccccc2)n1Cc1ccco1	-7%
67	N#Cc1cc2cc3c(cc2nc1N1CCOCC1)OCO3	15%
68	CC(=O)N1CCC(C(=O)Nc2ccccc2)(N(Cc2ccccc2)C(=O)c2cccnc2)CC1	16%
69	O=[N+]([O-])CCO	-13%
70	O=c1c2ccccc2nc2n1CCS2	-7%

Following part:
nr	structure	AmpC inh no det
71	O=C(NCC1CCS(=O)(=O)C1)Oc1ccccc1 (stereo unspecified)	-1%
72	O=S(=O)(c1ccccc1)N1CCC2(CCCN(c3ccccc3)C2)CC1	4%
73	CCOC(=O)N1CCN(C(=O)c2ccc(CNS(=O)(=O)c3ccc(C)cc3)cc2)CC1	58%
74	CCN(CC)CCNC(=O)C1c2ccccc2C(=O)N(C)C1c1cn(C)c2ccccc12 (stereo unspecified)	36%
75	COc1cccc(Cn2c(=O)c(-c3ccc(Cl)cc3)nc3cncnc32)c1	14%
76	Cn1nc(-c2ccc(N3CCOCC3)c(NC(=O)c3ccccc3)c2)c2ccccc2c1=O	102%
77	O=C(OCn1nnc2ccccc2c1=O)c1ccc2ncsc2c1	14%
78	CCOc1ccccc1-n1c(SCC(=O)NC2CCCC2)nnc1-c1ccoc1C	69%
79	N#CC(C(=O)c1ccc(S(=O)(=O)N2CCCCCC2)cc1)c1nc2ccccc2[nH]1 (stereo unspecified)	?
80	CS(=O)(=O)N(CCc1ccccc1)CC(=O)NCc1ccccn1	5%

The listing continues.
nr	structure	AmpC inh no det
81	Cc1noc(C)c1-c1nccc(NCCN2CCOCC2)n1	21%
82	O=C(c1cccc(F)c1)N1CCC2(CC1)CN(c1cccc(-c3ccccc3)c1)C2	59%
83	COc1ccc(-c2nc(CSCC(=O)N3CCC(C(N)=O)CC3)c(C)o2)cc1OC	86%
84	CCCC(c1nnnn1CS(=O)(=O)c1ccc(C)cc1)N1CCN(c2ccc(F)cc2)CC1 (stereo unspecified)	0%
85	O=C(O)/C=C\C(=O)Nc1ccccn1	-5%[5.75 µM]
86	C=C(C)CSCc1nc2ccccc2[nH]1	-10%
87	COc1ccccc1-n1cnnc1SCC(=O)Nc1cc(C(C)(C)C)nn1-c1ccccc1	81%
88	CN1CCN(C(=O)COc2ccc(C(C)(C)C)cc2Br)CC1	6%
89	COCCn1c(=O)c(-c2cccc(C#N)c2)nc2cnc(OCc3ccccc3)nc21	16%
90	Cc1nc2ccccc2n1CCC(=O)Nc1cccc(F)c1	-6%

(further entries)
nr	structure	AmpC inh no det
91	O=C(NCc1ccco1)c1cc2c(s1)CCCCC2	-17%
92	NC(=O)CSc1nc2ccccc2n1Cc1ccccc1F	36%
93	COc1cc(OC)c(CN2CCN(c3ccc(F)cc3)CC2)cc1Br	49%
94	N=c1n(CCN2CCOCC2)c2ccccc2n1CC(O)COc1ccccc1 (stereo unspecified)	10%
95	Cc1cc2ccccc2n1CCNC(=O)C1CCCC1	5%
96	COc1ccc(OCC(=O)Nc2ccc(NC(=O)c3ccco3)cc2)cc1	0%
97	NC(=O)c1c(N)sc(=S)n1-c1ccccc1	-11%
98	Cc1ccccc1C#N	-19%
99	O=C(Nc1ccc2c(c1)OCO2)C1CCCN(S(=O)(=O)Cc2ccccc2)C1 (stereo unspecified)	-10%
100	CCN1C(=O)/C(=C\N2CCCc3ccccc32)SC1=S	-9%

Following part.
nr	structure	AmpC inh no det
101	C=CC(C)n1c(Br)nc2c1c(=O)[nH]c(=O)n2C (stereo unspecified)	-2%
102	Cc1ccc(CCNC(=O)C2CCCN(c3nc4ccccc4o3)C2)cc1 (stereo unspecified)	80%
103	COc1ccc(-c2nnc3sc(CN4C(=O)c5ccccc5C4=O)nn23)cc1	23%
104	O=C(COc1ccc2ccccc2c1)N1CCCC1	5%
105	COc1ccc(CCN(CC(=O)NC2CCCC2)C(=O)CCC(=O)Nc2cc(C)on2)cc1OC	49%
106	COc1ccc(C(=O)N2CCC3(CCCN(c4cccc(-c5ccccc5)c4)C3)CC2)cc1	57%
107	OC[C@@H](O)COc1cccc2ccccc12	27%
108	COCC(=O)N1CCC2(CC1)CN(c1ccc(-c3ccccc3)cc1)C2	135%
109	CC1CCCC(C)N1S(=O)(=O)c1ccc(NC(=O)CNCC2CCCO2)cc1 (stereo unspecified)	59%
110	CC(=O)SCCC(=O)N1C(C)CCCC1C(=O)O (stereo unspecified)	2%

(further entries)
nr	structure	AmpC inh no det
111	O=C(NCc1ccccc1)c1cc(S(=O)(=O)N2CCOCC2)ccc1F	56%
112	COc1ccc(CN2CCC(CNC(=O)NC3CCCCC3)CC2)cc1	-4%
113	O=C(Nc1ccc2c(c1)OCO2)c1cccc2c1C(=O)N(Cc1cccnc1)C2	97%
114	Cc1ncoc1C(=O)Nc1ccccc1-c1ccccc1	15%
115	COc1ccc(Oc2ncc3nc(C)c(=O)n(-c4ccc(OC)cc4)c3n2)cc1	57%
116	Cc1ccc(S(=O)(=O)c2ccc(Cl)cc2)cc1S(=O)(=O)N1CCOCC1	70%
117	Cc1cccc(N(C)C(=S)Oc2ccc3ccccc3c2)c1	-11%[12.8 µM]
118	CN1C(=O)C(O)(CC(=O)c2ccccn2)c2cc(Br)ccc21 (stereo unspecified)	19%
119	C=C(C)CSc1nnc2[nH]c(=O)cc(N)n12	-6%
120	CCN(CC(N)=O)S(=O)(=O)c1ccc(Br)cc1	6%

Next section.
nr	structure	AmpC inh no det
121	CCN(CC)S(=O)(=O)c1cc(Br)ccc1OC	13%
122	Cn1c(CCN2CCN(c3ccccc3)CC2)nc2cc(NC(=O)c3ccco3)ccc21	10%
123	CCCCCn1c(CN2CCN(c3cc(Cl)ccc3C)CC2)nc2c1c(=O)[nH]c(=O)n2C	98%
124	CN1CCN(c2ccccc2NC(=O)c2cccc(OCc3ccccc3)c2)CC1	105%
125	Cc1cc(NS(=O)(=O)c2ccc(NC(=O)Nc3ccc4c(c3)OCO4)cc2)no1	-19%
126	CCNc1ncc2nc(-c3ccc(OC)cc3)c(=O)n(CCOC)c2n1	-6%
127	CC(=O)c1ccc(C(C)(C)c2ccc(C(C)=O)s2)s1	24%
128	O=[N+]([O-])/C=C\c1cc2ccccc2[nH]1	-5%[5.75 µM]
129	Cc1c2ccncc2c(C)c2c1[nH]c1ccccc12	1%[12.8 µM]
130	Cc1cccc(-n2ncc3c(NCCCn4ccnc4)ncnc32)c1	25%
131	O=S(=O)(NC1=NCCC1)c1cccs1	-11%

Compound activity as filed in PubChem BioAssay.

An excerpt (hit frequency here may not be typical).
